2A firefly: lowers the firefly signal of an FMDV 2A StopGo reporter. Potency, µM (doses to about 57.5 µM), without a hit: at the highest dose signal change, negative = less light. hit rate 0.23% among 120,000. HEK cells with a luciferase reporter of 2A StopGo recoding. AID 1745856; active = well fitted falling curve with a large enough effect; inconclusive = small, poorly fitted or top-dose-only effect; inactive = no such curve, though single readings can be large or run the other way; note: nearly all actives have a fitted effect of over 60% in size; overnight with compound
StopGo RLuc: lowers the Renilla signal of an FMDV 2A StopGo reporter; HEK cells with a luciferase reporter of 2A StopGo recoding; hit rate 0.32% among 120,000; Potency, µM (highest dose often 57.5 µM), inactives show top-dose signal change, negative = less light; active means well fitted falling curve with a large enough effect; inconclusive means small, poorly fitted or top-dose-only effect; inactive means no such curve, though single readings can be large or run the other way; note: nearly all actives have a fitted effect of over 55% in size; overnight with compound
An asterisk follows results filed as active; ? = inconclusive; & = joins results of further samples; [ ] = another dose, or the depositor's remark. % is set by controls: 0 for no effect and ±100 for the full control effect; potency is the fitted concentration of half-maximal effect.

SMILES	2A firefly	StopGo RLuc
CC(C)(C)NC(NC(=O)c1cccc([N+](=O)[O-])c1)C(Cl)(Cl)Cl (stereo not given)	-18%	-20%
Cc1ccc(CNS(=O)(=O)c2cc3c(cc2Cl)NC(=O)CO3)o1	-14%	3%
CCn1cc(C(=O)NCCCN2CCC(C)CC2)c(=O)c2cc(S(=O)(=O)N(C)C3CCCCC3)ccc21	-31%	30%
COc1ccc2c(C)c(CCC(=O)N(C)Cc3cccc(OC)c3OC)c(=O)oc2c1	-2%	35%[activator]
OCCNc1nc(Nc2ccc(Cl)c(Cl)c2)nc2nccnc12	39%[activator]	18%
CCc1cccc(C)c1Nc1c(-c2cccc(O)c2)nc2cnccn12	-16%&-13%	-13%&5%
Cc1nn2c(=O)cc(COC(=O)c3ccccc3NC(=O)C(C)Oc3ccccc3)nc2s1 (stereo not given)	17%&-17%	-3%&-11%
Nc1cc(-n2cccc2)ccc1Cl	0%	-12%
Cc1ccc(Nc2nc(-c3ccncc3)cs2)cc1C	0%	?
COc1cccc(-n2c(SCC(=O)N3CCCCC3)nc3c([nH]c4ccccc43)c2=O)c1	6%	-16%
Cc1ccc2nc(C)c(C(=O)N3CCN(c4ccc(F)cc4)CC3)cc2c1	-22%	-21%
CCOC(=O)c1nnc2c(-c3ccc(Br)cc3)c(C)nn2c1C	-8%	-8%
O=C(Nc1ccccc1F)NC1(C(F)(F)F)Oc2ccccc2O1	49%[activator]	16%
Cc1ccc(C(=O)COC(=O)COc2ccc(Cl)c(C)c2)c(C)c1	1%	-10%[1.06 µM]
CCOc1ccccc1NC(=O)c1nc(S(=O)(=O)Cc2cccc(C)c2)ncc1Cl	-15%	-19%
Cn1c(NCc2ccc3c(c2)OCO3)nc2c1c(=O)n(Cc1ccccc1)c(=O)n2C	1%	-11%
Cc1cccc(Cn2c(SCC(N)=O)nc3c2c(=O)[nH]c(=O)n3C)c1	61%[activator]	91%[activator]
CN(C(=O)c1c[nH]c2ccc(S(=O)(=O)Nc3cccc(C(F)(F)F)c3)cc2c1=O)C1CCCCC1	-22%	31%[activator]
CCC(C)n1c(=N)c(C(=O)NCc2ccccc2)cc2c(=O)n3cc(C)ccc3nc21 (stereo not given)	-13%	3%
C/C(=N\NC(=O)c1ccc(C)cc1)c1ccc(C)s1	175%[activator]	9%
COc1ccccc1Nc1nc2ccccc2nc1NS(=O)(=O)c1ccc(F)cc1	-10%	-7%
COc1ccc(CNC(=O)Cn2nc(N3CCN(c4ccccc4)CC3)ccc2=O)c(OC)c1	-9%	3%
CC1CCN(C(=O)Cn2cc(SCC(=O)NCc3ccccc3)c3ccccc32)CC1	-12%	14%
Cc1ccccc1CNC(=O)c1cccc(NC(=O)N2CCSc3ncccc32)c1	24%	-16%
COc1ccc(Oc2nc3c(c(=O)n(C)c(=O)n3C)n2Cc2ccccc2Cl)cc1	-12%	-12%

Entries from the list above that have a Cl atom, in the order listed:
SMILES	2A firefly	StopGo RLuc
CC(C)(C)NC(NC(=O)c1cccc([N+](=O)[O-])c1)C(Cl)(Cl)Cl (stereo not given)	-18%	-20%
Cc1ccc(CNS(=O)(=O)c2cc3c(cc2Cl)NC(=O)CO3)o1	-14%	3%
OCCNc1nc(Nc2ccc(Cl)c(Cl)c2)nc2nccnc12	39%[activator]	18%
Nc1cc(-n2cccc2)ccc1Cl	0%	-12%
Cc1ccc(C(=O)COC(=O)COc2ccc(Cl)c(C)c2)c(C)c1	1%	-10%[1.06 µM]
CCOc1ccccc1NC(=O)c1nc(S(=O)(=O)Cc2cccc(C)c2)ncc1Cl	-15%	-19%
COc1ccc(Oc2nc3c(c(=O)n(C)c(=O)n3C)n2Cc2ccccc2Cl)cc1	-12%	-12%

Continuation.
SMILES	2A firefly	StopGo RLuc
Oc1ccc(Cl)cc1Nc1nc2ccccc2n2cnnc12	2%	-7%
Cc1nc2sc(C(=O)OCC(=O)Nc3cc(C(F)(F)F)ccc3Cl)c(C)c2c(=O)[nH]1	-1%	-12%
COc1ccc(CCNC(=O)C(=O)NCc2n[nH]c(=O)c3ccccc23)cc1OC	3%	-1%
COc1cc(NS(=O)(=O)c2ccc(NC(=O)c3cccc(F)c3)cc2)nc(OC)n1	-3%	20%
CCSc1ccccc1C(=O)NC12CC3CC(CC(C3)C1)C2	4%	70%[activator]
Cn1cc(C(C(=O)O)N2CCCC2)c2cc(C(=O)O)ccc21 (stereo not given)	-2%	-6%
c1cc(CNCCN2CCCC2)cs1	2%	-10%
Cc1ccc(NC(=O)Cn2nc(-c3ccncc3)ccc2=O)cc1Cl	-3%	-2%
O=C(COC(=O)c1ccc2ccccc2n1)c1ccc2ccccc2c1	12%	3%
C=C(C)C#CC(Cc1ccccc1)NCC1CC1 (stereo not given)	5%	0%
O=C(CCC1N=C2c3ccccc3N=C(SCC(=O)Nc3ccc(F)cc3)N2C1=O)NCc1cccs1 (stereo not given)	-19%	-14%
Cc1ccc2nsnc2c1NC(=O)c1cc(Br)ccc1Cl	0%	9%
N#C/C(=C/c1ccc(Br)cc1)Sc1ccc(Br)cc1	?	-12%
CCOc1ccccc1NC(=O)Cn1c(=O)n(Cc2cccs2)c(=O)c2cccnc21	6%	-10%
CN(Cc1ccccc1)S(=O)(=O)c1ccc(NC(=O)CN2CCN(c3ccccc3O)CC2)cc1	?	-21%
CCc1ccc2oc(C(=O)Nc3cc(Cl)ccc3OC)cc(=O)c2c1	-15%	-4%
CC(NS(=O)(=O)c1ccccc1F)C(=O)Nc1ccc(F)c(Cl)c1 (stereo not given)	3%	7%
Cc1nn(C(C)C(=O)N2CCN(c3ccc(F)cc3)CC2)c(=O)c2c1sc1ccccc12 (stereo not given)	-27%	-17%
COc1ccccc1N1C(=O)CCC1(C)C(=O)NC1CCCC1 (stereo not given)	-5%	-4%
CCc1ccc(NC(=O)CN(c2ccc(C)cc2)S(=O)(=O)c2cccs2)cc1	-33%	-3%
COC(=O)c1ccccc1NC(=O)Cn1nc(C)c2nn(-c3ccc(Cl)cc3)c(C)c2c1=O	-17%	-10%
Cc1c2cnn(CC(=O)NCc3ccc(F)cc3)c(=O)c2c(C)n1Cc1ccccc1Cl	-2%	-7%
CCOc1ccc(-c2nc(CNC(=O)Nc3cccc(OC)c3)c(C)o2)cc1	41%[activator]	-2%
Cc1noc2ncnc(NCCc3ccccc3)c12	?	?
CCCN(Cc1cccs1)C(=O)Nc1cc(Cl)ccc1OC	5%	23%
Additional results follow:
SMILES	2A firefly	StopGo RLuc
Cc1ccc2c(Cn3cc(S(=O)(=O)N(C)C)ccc3=O)cc(=O)oc2c1	2%	6%
Cc1cc(C)cc(-n2ccnc2SCC(=O)Nc2nc3ccc(C)cc3s2)c1	0%	-13%
CC(C)C(=O)Nc1ccc2[nH]cc(C(C(=O)O)N3CCN(Cc4ccccc4)CC3)c2c1 (stereo not given)	1%	-6%
CC(C)(C)C(=O)COC(=O)c1ccccc1SC1CCS(=O)(=O)C1 (stereo not given)	-6%	18%
Cc1cccc(C(=O)Nc2ccccc2OCc2cc(=O)n3ccccc3n2)c1	-18%	6%
Cc1c(Cl)cccc1NC(=O)CCn1c(=O)c2cccn2c2ccccc21	-11%	7%
COc1ccc(-n2nc(C(=O)N3CCC(C)CC3)c3c4ccccc4n(C)c3c2=O)cc1Cl	1%	-2%
Cc1ccccc1NC(=O)CSc1nccn2nc(-c3cccc4ccccc34)cc12	10%	-12%
CCc1cc2c(SCC(=O)Nc3ccc(C(C)=O)cc3)ncnc2s1	10%	-15%
CCCOC(=O)c1c(-c2ccc(OC)cc2)csc1NC(=O)c1ccoc1C	3%	-4%
CC(=O)c1cccc(NC(=O)CC(c2ccc(C)cc2)N2Cc3ccccc3C2=O)c1 (stereo not given)	10%	137%[activator]
Cc1ccc(S(=O)(=O)Oc2ccc3c(c2)O/C(=C\c2ccccc2C)C3=O)cc1	21%	15%
COc1cccc2sc(N(Cc3cccnc3)C(=O)C3COc4ccccc4O3)nc12 (stereo not given)	12%	5%
CCNc1ccc(S(=O)(=O)N(CC)CC)cc1NC(=O)Cc1ccccc1F	0%	196%[activator]
CCCN(CCC)CCCNC(=O)C1CCN(c2nc3ccc(CC)cc3s2)CC1	76%[activator]	-4%
COc1cc(CNC(=O)c2ccc3c(c2)N(C)C(=O)C2CCCCN32)cc(OC)c1OC (stereo not given)	10%	13%
Cc1ccc(CCNC(=O)c2ccc3c(c2)N(Cc2cccc(C)c2)C(=O)c2ccccc2S3(=O)=O)cc1	-8%	7%
CCc1ccc2oc(=O)cc(CN3CCN(c4ccccn4)CC3)c2c1	-2%	-3%
Cc1nn(CCC(=O)Nc2cccc(Cl)c2)c(=O)c(C#N)c1C	7%	2%
CCCc1cc(=O)oc2cc(OCC(=O)Nc3ccc(C(=O)N(C)C)cc3)ccc12	-8%	-13%
Cc1cccc(Cn2cc(CN3CC(N(C)CCCOC(=O)c4cc5ccccc5o4)CS3(=O)=O)nn2)c1 (stereo not given)	121%[activator]	19%
COc1ccccc1-c1noc(-c2ccc(NCCc3ccccc3)c([N+](=O)[O-])c2)n1	36%[activator]	-3%
Clc1cccc(CN2CCN(Cc3nnsc3Cl)CC2)c1	-10%	-17%
Cc1cc(-c2csc(NC3CC3)n2)c(C)n1-c1c(C)n(C)n(-c2ccccc2)c1=O	-24%	-19%
Cc1cc(NCc2ccccc2Cl)n2cnnc2n1	?	16µM*
Other results.
SMILES	2A firefly	StopGo RLuc
CCOC(=O)C(C)N1C(=O)S/C(=C/c2ccc(Cl)s2)C1=O (stereo not given)	0%	11%
O=C(c1cn[nH]c1-c1ccccc1)N1CCN(S(=O)(=O)c2cccc(C(F)(F)F)c2)CC1	-5%	-1%
CCOC(=O)c1cnc(Nc2ccccc2OCC)c2ccccc12	17%	11%
CC(=O)c1ccc(N2CCN(C(=O)C3CCN(S(=O)(=O)c4c(C)noc4/C=C/c4ccc(C)cc4)CC3)CC2)cc1	-2%	2%
COc1ccc(-c2cc(C(F)F)n3ncc(C(=O)Nc4cc(OC)ccc4OC)c3n2)cc1	4%	-6%
COc1ccc(Br)cc1CNC(=O)C1COc2ccccc2C1 (stereo not given)	0%	0%
COc1ccc(N2CCN(C(=O)c3sc4nc5n(c(=O)c4c3C)CCC5)CC2)cc1	19%	2%
O=C(CNC(=O)C1CCCC1)NC1CCCC1	9%	14%
CCN(CC)c1nc2ccccc2nc1C(=O)Nc1cc(OC)ccc1OC	0%	5%
Cc1ccc(CN2CCC(CNC(=O)Nc3ccc(Cl)cc3)C2)cc1 (stereo not given)	-23%	-22%
CCCNCc1ccc(-c2cccc(Cl)c2)o1	26%	3%
COc1ccccc1CNC(=O)c1cccc(NC(=O)N2CCSc3ncccc32)c1	0%	-8%
Cc1ccc(OCCN(C)C(=O)NCc2ccccc2)cc1	52%[activator]	26%
CCOC(=O)N1CCC(NC(=O)c2c(C)nn(-c3cccc(C)c3)c2-n2cccc2)CC1	-11%	-8%
CCC(Sc1nc2nccnc2c(=O)n1Cc1ccc(C)cc1)C(=O)NC1CCCCC1 (stereo not given)	-5%	0%
CCOC(=O)C(NC(=O)c1cc(F)c(F)cc1Cl)C(=O)OCC	11%	5%
CNC(=O)NC(=O)CCN(Cc1ccc(C#N)cc1)C(C)C	43%[activator]	-15%
O=C(Nc1cccc(-c2nc3ccccc3o2)c1)c1cccc2c(Cl)cccc12	-12%	-7%
O=C(CC1C(=O)NCCN1C(=O)CN1CCN(c2ncccn2)CC1)Nc1ccc(F)cc1 (stereo not given)	10%	7%
CN(CC(=O)NC(C)(C)C)c1nc2ccccc2o1	22%	15%
COc1cccc(NC(=O)CC(C)S(=O)(=O)c2ccc3c(c2)NC(=O)CO3)c1 (stereo not given)	9%	?
CCCCCCn1c(SCC(=O)c2ccccc2)nc2c1c(=O)n(C)c(=O)n2C	4%	-1%
O=C(/C=C/c1ccccc1)NCCc1c[nH]c2ccccc12	37%[activator]	-5%
NCC(CC(=O)O)c1ccc(Cl)cc1 (stereo not given)	-3%[0.46 µM]	-7%[0.46 µM]
COC(=O)CC1c2cc(OC)c(OC)cc2CCN1Cc1noc(C(C)(C)C)n1 (stereo not given)	-9%	?

Arranged by molecular weight (descending): three of the compounds above
SMILES	2A firefly	StopGo RLuc
CCCCCCn1c(SCC(=O)c2ccccc2)nc2c1c(=O)n(C)c(=O)n2C	4%	-1%
CCOC(=O)C(NC(=O)c1cc(F)c(F)cc1Cl)C(=O)OCC	11%	5%
CCOC(=O)c1cnc(Nc2ccccc2OCC)c2ccccc12	17%	11%

The results go on:
SMILES	2A firefly	StopGo RLuc
CCc1cc2c(cc3c(=O)n(CC(=O)N4CCN(c5cccc(C)c5C)CC4)nc(CC)n32)s1	19%	2%
COC(=O)C1=C(c2ccccc2)c2ccccc2S(=O)(=O)N1CC(=O)Nc1ccccc1C(F)(F)F	-6%	89%[activator]
Cc1cc(C(=O)COC(=O)c2nn(C)c(=O)c3ccccc23)c(C)n1CC1CCCO1 (stereo not given)	70%[activator]	8%
Cn1c(=O)c2c(nc(NCCOc3ccc(F)cc3)n2C)n(C)c1=O	5%	-3%
COc1ccc(NC(=O)C2Cc3ccccc3CN2S(=O)(=O)c2ccccc2)cc1OC (stereo not given)	45%[activator]	0%
Cc1n[nH]c(C)c1S(=O)(=O)N(CC(=O)Nc1ccc(C(F)(F)F)cc1)c1ccc(C(C)C)cc1	?	-17%
Cc1scc(C(=O)Nc2ccc3c(c2)CCC3)c1C	2%	17%
COC(=O)c1ccc(/C=C/C(=O)c2ccc(C)o2)cc1	126%[activator]	20%

One compound at a time, from the list above.
COc1ccc(Oc2nc3c(c(=O)n(C)c(=O)n3C)n2Cc2ccccc2Cl)cc1 across the screens: 2A firefly = -12%; StopGo RLuc = -12%
CNC(=O)NC(=O)CCN(Cc1ccc(C#N)cc1)C(C)C across the screens: 2A firefly = 43%[activator]; StopGo RLuc = -15%

These rows are one share of the data; the hit share may differ from the screen's.
